A1 apoptosis 2 – A1 inhibitors via caspase activation, primary screen, cell-based, luminescence, HTS, two replicates; MEF A1-2A-BIM cells, caspase-Glo luminescence, 3 h; percent of clofoctol response, DMSO zero; caspase activation, % (no concentration beside the values); 24,000 tested, under 10 active; in the data active = caspase activation above about 5.9%;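 note: wells of about 30 µL received 50 nL stock; the first replicate is given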
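Material: A1-2A-BIM-expressing MEF cells. Buffer or medium: RPMI-1640 plus 10% FBS. Incubation: cells settled overnight, compound exposure 3 h at 37 °C, 5% CO2. Signal: Caspase-Glo 3/7 luminescence, 1 h at room temperature.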
An asterisk follows results filed as active. A portion of the library (hit frequency here may not be typical).

Molecule,A1 apoptosis 2
COc1ccc(S(=O)(=O)N(C)C[C@@H]2Oc3ccc(NC(=O)CCC(F)(F)F)cc3C(=O)N([C@@H](C)CO)C[C@@H]2C)cc1,0.3
C[C@@H]1CN([C@@H](C)CO)C(=O)Cc2cc(NC(=O)C3CC3)ccc2O[C@@H]1CN(C)C(=O)Nc1cccc2ccccc12,0.8
C[C@H](CO)N1C[C@H](C)[C@H](CN(C)Cc2ccc(Oc3ccccc3)cc2)Oc2c(NC(=O)c3ccncc3)cccc2C1=O,0.2
COc1ccc(NC(=O)N(C)C[C@H]2Oc3c(NS(=O)(=O)c4c(C)noc4C)cccc3C(=O)N([C@H](C)CO)C[C@H]2C)cc1,0.9
C[C@@H]1CN([C@@H](C)CO)C(=O)c2cc(NC(=O)Cn3cnnn3)ccc2O[C@H]1CN(C)C(=O)Nc1ccc2c(c1)OCO2,-2.3
COc1ccc(CN(C)C[C@@H]2OCCCC[C@H](C)Oc3ccc(NC(=O)C4CCCCC4)cc3C(=O)N([C@@H](C)CO)C[C@H]2C)cc1,-0.1
O=C(OC[C@@H]1[C@H]2c3ccccc3OC1(CO)N=C1SCC(=O)N12)c1ccccc1,0.2
O=C(N/N=C/c1cc2ccccc2n1S(=O)(=O)c1ccccc1)c1ccccn1,-1.1
C[C@H](CO)N1C[C@H](C)[C@@H](CN(C)Cc2ccc(Oc3ccccc3)cc2)Oc2ccc(NC(=O)Nc3ccc(F)cc3)cc2CC1=O,-0.4
COc1cccc(-c2cnc3c(c2)C(=O)N([C@H](C)CO)C[C@H](C)[C@H](CN(C)C(=O)NC(C)C)O3)c1,0.6
COc1ccc(NC(=O)Nc2ccc3c(c2)C(=O)N([C@H](C)CO)C[C@@H](C)[C@H](CN(C)C(=O)Nc2cccc4ccccc24)O3)cc1,-1.0
C[C@@H]1CN([C@@H](C)CO)C(=O)Cc2cc(NS(=O)(=O)c3ccc(Cl)cc3)ccc2O[C@@H]1CN(C)Cc1ccc(C(F)(F)F)cc1,-0.4
Cc1noc(C)c1NC(=O)Nc1cccc2c1O[C@H](CN(C)Cc1ccc(C(=O)Nc3ccccc3N)cc1)[C@@H](C)CN([C@H](C)CO)C2=O,0.2
Cc1noc(C)c1S(=O)(=O)Nc1ccc2c(c1)C(=O)N([C@@H](C)CO)C[C@H](C)[C@H](CN(C)Cc1ccc(C(F)(F)F)cc1)OCCCC[C@@H](C)O2,-2.8
Cc1noc(C)c1NC(=O)N(C)C[C@@H]1Oc2ccc(NC(=O)Cc3ccccc3)cc2C(=O)N([C@@H](C)CO)C[C@H]1C,-0.3
CNC[C@H]1Oc2ccc(NC(=O)Cc3cn(C)c4ccccc34)cc2CC(=O)N([C@@H](C)CO)C[C@H]1C,-0.1
C[C@H](CO)N1C[C@H](C)[C@H](CN(C)S(=O)(=O)c2cccs2)Oc2c(NC(=O)Nc3ccc(F)cc3)cccc2C1=O,0.4
Cc1noc(C)c1S(=O)(=O)Nc1ccc2c(c1)C(=O)N([C@H](C)CO)C[C@H](C)[C@@H](CN(C)C(=O)c1ccncc1)OCCCC[C@@H](C)O2,-0.6
C[C@@H]1CN([C@H](C)CO)C(=O)c2cccc(NS(=O)(=O)c3cn(C)cn3)c2O[C@H]1CN(C)CC1CC1,0.7
C[C@H]1CN([C@@H](C)CO)C(=O)c2cc(NC(=O)C3CCCCC3)ccc2O[C@@H]1CN(C)C(=O)Nc1ccc(F)cc1,-0.9
C[C@@H]1CN([C@H](C)CO)C(=O)c2cc(NS(C)(=O)=O)ccc2O[C@H]1CN(C)S(=O)(=O)c1ccc(Cl)cc1,-0.7
C[C@@H]1CN([C@@H](C)CO)C(=O)c2cc(NS(=O)(=O)c3ccccc3)ccc2O[C@@H](C)CCCCO[C@@H]1CN(C)C(=O)CCC(F)(F)F,-0.5
CCCCCCC/C=N/NC(=O)c1ccccc1O,-0.1
CC(C)NC(=O)N(C)C[C@H]1Oc2ccc(NC(=O)C3CC3)cc2C(=O)N([C@@H](C)CO)C[C@H]1C,-0.7
COc1ccc(NC(=O)N(C)C[C@H]2OCCCC[C@@H](C)Oc3ccc(NC(=O)Cc4ccccc4)cc3C(=O)N([C@@H](C)CO)C[C@@H]2C)cc1,-0.1
COc1ccc(S(=O)(=O)N(C)C[C@@H]2OCCCC[C@@H](C)Oc3ccc(NC(=O)Nc4c(C)noc4C)cc3C(=O)N([C@H](C)CO)C[C@@H]2C)cc1,-1.1
C[C@@H]1CN([C@H](C)CO)C(=O)c2cc(NS(=O)(=O)c3cccs3)ccc2O[C@@H](C)CCCCO[C@@H]1CN(C)S(=O)(=O)c1ccccc1,0.4
C[C@@H]1CN([C@@H](C)CO)C(=O)Cc2cc(NS(=O)(=O)c3ccc(F)cc3)ccc2O[C@H]1CN(C)S(=O)(=O)c1cccs1,0.9
Cc1noc(C)c1S(=O)(=O)Nc1ccc2c(c1)C(=O)N([C@@H](C)CO)C[C@@H](C)[C@@H](CN(C)C(=O)c1ccccc1)OCCCC[C@@H](C)O2,-0.1
C[C@@H]1CN([C@@H](C)CO)C(=O)c2cc(NC(=O)CCN3CCOCC3)ccc2O[C@@H]1CN(C)S(=O)(=O)c1ccccc1,-1.2

Next part (two carried over from the part before).
Molecule,A1 apoptosis 2
Cc1noc(C)c1S(=O)(=O)Nc1ccc2c(c1)C(=O)N([C@@H](C)CO)C[C@@H](C)[C@@H](CN(C)C(=O)c1ccccc1)OCCCC[C@@H](C)O2,-0.1
C[C@@H]1CN([C@@H](C)CO)C(=O)c2cc(NC(=O)CCN3CCOCC3)ccc2O[C@@H]1CN(C)S(=O)(=O)c1ccccc1,-1.2
C[C@@H]1CCCCO[C@H](CN(C)Cc2ccc(Cl)c(Cl)c2)[C@@H](C)CN([C@@H](C)CO)C(=O)c2cc(NC(=O)c3ccccc3)ccc2O1,0.2
C[C@@H]1CN([C@H](C)CO)C(=O)c2cccc(NC(=O)Nc3ccc(C(F)(F)F)cc3)c2O[C@@H]1CN(C)C(=O)Nc1cccc2ccccc12,1.0
C[C@H]1CN([C@@H](C)CO)C(=O)Cc2cc(NC(=O)C3CC3)ccc2O[C@H]1CN(C)Cc1ccncc1,-0.9
C[C@H](CO)N1C[C@H](C)[C@H](CN(C)S(=O)(=O)c2ccccc2)OCCCC[C@H](C)Oc2ccc(N(C)C)cc2C1=O,-0.8
C[C@H]1CN([C@@H](C)CO)C(=O)c2cccc(NS(C)(=O)=O)c2O[C@@H]1CN(C)C(=O)Nc1ccc(C(F)(F)F)cc1,0.8
Cc1noc(C)c1NC(=O)Nc1ccc2c(c1)C(=O)N([C@@H](C)CO)C[C@@H](C)[C@@H](CN(C)S(=O)(=O)c1cccs1)O2,0.0
C[C@@H]1CN([C@@H](C)CO)C(=O)Cc2cc(NC(=O)Nc3cccc4ccccc34)ccc2O[C@@H]1CN(C)S(=O)(=O)c1cccs1,0.8
CNC[C@@H]1OCCCC[C@@H](C)Oc2ccc(N)cc2C(=O)N([C@H](C)CO)C[C@H]1C,2.2
CCCN(C)C[C@@H]1OCCCC[C@H](C)Oc2ccc(NC(=O)CCCN(C)C)cc2C(=O)N([C@@H](C)CO)C[C@@H]1C,0.5
COc1ccc(CN(C)C[C@H]2OCCCC[C@H](C)Oc3ccc(NC(=O)NC4CCCCC4)cc3C(=O)N([C@H](C)CO)C[C@H]2C)cc1,-0.8
COC(=O)C(CC#Cc1ccc2c(c1)[C@]1(C(=O)N2)[C@H](C(N)=O)[C@H]2C(=O)O[C@H](c3ccccc3)[C@H](c3ccccc3)N2[C@@H]1c1ccc(OCCO)cc1)C(=O)OC,-0.3
C[C@@H]1CN([C@H](C)CO)C(=O)Cc2cc(NC(=O)Nc3ccc(F)cc3)ccc2O[C@H]1CN(C)S(=O)(=O)c1ccc(F)cc1,0.0
C[C@@H]1CN([C@H](C)CO)C(=O)c2cc(NC(=O)Cc3ccccc3)ccc2O[C@@H](C)CCCCO[C@H]1CN(C)C(=O)Cc1ccccc1,-0.9
C[C@@H]1CN([C@@H](C)CO)C(=O)c2cc(NC(=O)Nc3ccc(F)cc3)ccc2O[C@H]1CN(C)S(=O)(=O)c1ccc(Cl)cc1,0.7
C[C@@H]1CCCCO[C@H](CN(C)C(=O)c2ccncc2)[C@@H](C)CN([C@@H](C)CO)C(=O)c2cc(NS(C)(=O)=O)ccc2O1,0.3
C[C@H]1CN([C@@H](C)CO)C(=O)Cc2cc(NC(=O)Nc3ccccc3)ccc2O[C@@H]1CN(C)C,-0.1
C[C@@H]1CN([C@H](C)CO)C(=O)c2cccc(NC(=O)Nc3ccccc3)c2O[C@H]1CN(C)C(=O)Nc1ccc2c(c1)OCO2,0.9
C[C@H]1CN([C@@H](C)CO)C(=O)c2cc(N(C)C)ccc2O[C@@H]1CN(C)Cc1ccc(-c2ccccc2)cc1,0.1
C[C@H]1CN([C@@H](C)CO)C(=O)c2cccc(N(C)C)c2O[C@@H]1CN(C)Cc1ccccc1,-0.6
C[C@@H]1CN([C@H](C)CO)C(=O)CCCn2nncc2CO[C@H]1CN(C)C,0.4
C[C@@H]1CCCCO[C@H](CN(C)C(=O)c2ccncc2)[C@H](C)CN([C@@H](C)CO)C(=O)c2cc(NS(=O)(=O)c3cn(C)cn3)ccc2O1,-0.3
C[C@H](CO)N1C[C@H](C)[C@H](CN(C)CC2CCCCC2)Oc2ccc(NC(=O)Nc3ccccc3)cc2CC1=O,2.3
C=CCOC(=O)C1=C[C@H](c2ccc(Br)cc2)C[C@H](OCc2ccc(CO)cc2)O1,-1.0
Cc1noc(C)c1S(=O)(=O)N(C)C[C@@H]1Oc2c(NC(=O)C3CCCCC3)cccc2C(=O)N([C@H](C)CO)C[C@@H]1C,-0.8
Cc1ccc(S(=O)(=O)N(C)C[C@H]2Oc3ccc(NC(=O)CCCCCC(=O)Nc4ccccc4N)cc3C(=O)N([C@H](C)CO)C[C@H]2C)cc1,-0.1
C[C@H](CO)N1C[C@H](C)[C@@H](CN(C)S(C)(=O)=O)Oc2ccc(NC(=O)CCC(F)(F)F)cc2C1=O,-1.0
C[C@@H]1CN([C@H](C)CO)C(=O)c2cccc(NS(C)(=O)=O)c2O[C@@H]1CN(C)CC1CC1,-0.6
C[C@H](CO)N1C[C@H](C)[C@@H](CN(C)C(=O)Nc2ccc(F)cc2)Oc2c(NS(=O)(=O)c3ccc(Cl)cc3)cccc2C1=O,0.1
C[C@H](CO)N1C[C@H](C)[C@@H](CN(C)C(=O)NC2CCCCC2)Oc2c(NC(=O)Nc3ccc(F)cc3)cccc2C1=O,-0.1
C[C@@H]1CN([C@H](C)CO)C(=O)c2cc(NS(=O)(=O)c3ccc(Cl)cc3)ccc2O[C@@H](C)CCCCO[C@H]1CN(C)S(=O)(=O)c1ccccc1,-0.1
C[C@@H]1CCCCO[C@H](CN(C)C(=O)NC2CCCCC2)[C@H](C)CN([C@@H](C)CO)C(=O)c2cc(NS(=O)(=O)c3cccs3)ccc2O1,-0.3
C[C@H]1CN([C@@H](C)CO)C(=O)Cc2cc(NC(=O)Cc3cn(C)c4ccccc34)ccc2O[C@H]1CN(C)C(=O)Nc1ccccc1,-0.3
C[C@H]1CN([C@@H](C)CO)C(=O)Cc2cc(NC(=O)C3CCCCC3)ccc2O[C@@H]1CN(C)C(=O)Nc1ccc2c(c1)OCO2,-0.4
O=C(CCCCC(=O)N/N=C/c1ccc(-n2ccnc2)cc1)NO,1.1
Cc1noc(C)c1NC(=O)Nc1cccc2c1O[C@@H](CN(C)Cc1ccccc1)[C@H](C)CN([C@@H](C)CO)C2=O,1.1
C[C@H](CO)N1C[C@H](C)[C@H](CN(C)Cc2ccc(O)cc2)OCc2cn(nn2)CCCC1=O,0.7
Cc1ccc(S(=O)(=O)Nc2ccc3c(c2)C(=O)N([C@H](C)CO)C[C@H](C)[C@@H](CN(C)Cc2ccncc2)O3)cc1,-0.3
C[C@@H]1CCCCO[C@@H](CN(C)S(C)(=O)=O)[C@H](C)CN([C@@H](C)CO)C(=O)c2cc(NC(=O)CCC(F)(F)F)ccc2O1,0.4
COc1ccc(S(=O)(=O)Nc2ccc3c(c2)C(=O)N([C@H](C)CO)C[C@H](C)[C@H](CN(C)C)OCCCC[C@@H](C)O3)cc1,2.3
COc1ccc(CN(C)C[C@H]2OCCCC[C@@H](C)Oc3ccc(NS(C)(=O)=O)cc3C(=O)N([C@H](C)CO)C[C@H]2C)cc1,-0.7
C[C@@H]1CN([C@H](C)CO)C(=O)c2cc(NC(=O)CCCN(C)C)ccc2O[C@@H]1CN(C)Cc1ccc(C(=O)O)cc1,-1.0
C[C@@H]1CCCCO[C@H](CN(C)S(=O)(=O)c2cccs2)[C@@H](C)CN([C@H](C)CO)C(=O)c2cc(NS(C)(=O)=O)ccc2O1,0.5
C[C@@H]1CN([C@H](C)CO)C(=O)Cc2cc(NC(=O)Nc3ccccc3)ccc2O[C@@H]1CN(C)Cc1ccc(C(=O)O)cc1,-0.6

Some of the entries so far, with each value named.
smiles: C[C@@H]1CCCCO[C@@H](CN(C)S(C)(=O)=O)[C@H](C)CN([C@@H](C)CO)C(=O)c2cc(NC(=O)CCC(F)(F)F)ccc2O1
  A1 apoptosis 2: 0.4
smiles: COc1ccc(CN(C)C[C@H]2OCCCC[C@@H](C)Oc3ccc(NS(C)(=O)=O)cc3C(=O)N([C@H](C)CO)C[C@H]2C)cc1
  A1 apoptosis 2: -0.7
smiles: O=C(CCCCC(=O)N/N=C/c1ccc(-n2ccnc2)cc1)NO
  A1 apoptosis 2: 1.1
smiles: COc1ccc(S(=O)(=O)Nc2ccc3c(c2)C(=O)N([C@H](C)CO)C[C@H](C)[C@H](CN(C)C)OCCCC[C@@H](C)O3)cc1
  A1 apoptosis 2: 2.3

Screening data (PubChem)
